2A StopGo – High Throughput Screening for Foot and Mouth Disease Virus Antivirals | Potency, µM (doses to about 57.9 µM), without a hit: at the top dose signal change, negative = less light | human cells with a luciferase reporter of 2A StopGo recoding; control for the full effect not named in the record | AID 1159524, 2015 | hit rate 1.2% among 410,000; active = well fitted falling curve with a large enough effect; inconclusive = small, poorly fitted or top-dose-only effect; inactive = no such curve, though single readings can be large or run the other way; tested in HEK293T cells; also: % is scaled to controls: 0 for no effect and ±100 for the full control effect; nearly all actives have a fitted effect of over 45% in size; luciferase light after 4 h
NS1 inh – qHTS Assay for Inhibitors of Influenza NS1 Protein Function | Potency, µM (series often up to 46.1 µM), for inactives: at the highest dose activity, positive = more growth | S. cerevisiae slowed by influenza A NS1, growth recovery by OD600 | hit rate 0.4% among 270,000; also: actives are rising curves; nearly all actives have a fitted effect of over 50% in size
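OD600 was taken as the measure of yeast growth restored by compound in an NS1-expressing S. cerevisiae strain. Cells had been washed out of glucose medium and diluted 1:100 into galactose -URA medium, pH 6.0.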
Cruzain inh Det – qHTS Assay for Promiscuous and Specific Inhibitors of Cruzain (with detergent); Cruzipain (Trypanosoma cruzi), P25779; purified cruzain, Z-FR-AMC fluorescence, 0.01% Triton; Potency, µM, for inactives: max response, negative = inhibition, actives largely listed as inhibitors; hit rate 0.43% among 200,000; AID 1478, 2009; active = well fitted curve in the direction sought with a large enough effect; inconclusive = small, poorly fitted or top-dose-only effect, or another doubt; inactive = no such curve, though single readings can be large; an effect the other way counts as inactive or inconclusive;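 also: plate controls were neutral wells for no effect and buffer without enzyme for full effect; nearly all actives have a fitted effect of over 40% in size; top concentration of the series not given in the record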
Target sequence (P25779 123-467 limits assumed): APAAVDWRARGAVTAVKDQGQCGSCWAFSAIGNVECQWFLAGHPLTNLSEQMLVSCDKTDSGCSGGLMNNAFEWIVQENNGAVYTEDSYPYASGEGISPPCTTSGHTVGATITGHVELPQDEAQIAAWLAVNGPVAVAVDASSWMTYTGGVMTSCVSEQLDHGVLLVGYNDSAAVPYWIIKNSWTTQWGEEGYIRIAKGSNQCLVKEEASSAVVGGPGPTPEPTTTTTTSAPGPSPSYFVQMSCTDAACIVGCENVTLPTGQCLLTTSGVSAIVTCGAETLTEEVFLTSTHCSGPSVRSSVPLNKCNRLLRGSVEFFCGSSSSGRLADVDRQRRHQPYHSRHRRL
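Purified cruzain (1.5 nM final) was preincubated with compounds for 15 min at room temperature in 100 mM sodium acetate pH 5.5, 5 mM DTT, 0.01% Triton X-100. Reaction started with 2 uM Z-FR-AMC; AMC fluorescence change over 60 s gave activity.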
RE007 growth inh – qHTS Assay for Inhibitors of the HIV-1 protein Vpr; Potency, µM (titrated, usually from 92.2 µM), without a hit: top-dose activity change, negative = less growth; hit rate 0.21% among 360,000; S. pombe RE007 Vpr strain, BacTiter-Glo ATP luminescence, 24 h; control for the full effect not named in the record; active = well fitted falling curve with a large enough effect; inconclusive = small, poorly fitted or top-dose-only effect; inactive = no such curve, though single readings can be large or run the other way;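 also: % is scaled to controls: 0 for no effect and ±100 for the full control effect; nearly all actives have a fitted effect of over 50% in size; the assay follows cell death caused by Vpr and the record does not say whether a fall means rescue or toxicity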
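Fission yeast RE007 carrying one integrated HIV-1 vpr copy, seeded at OD 0.01 in PMG+AL medium with 23 nL pinned compound. Grown 24 h at 30 degrees; viability read by BacTiter-Glo luminescence after 5 min.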
LASV entry inh – qHTS for Inhibitors of binding or entry into cells for Lassa Virus; hit rate 1.2% among 300,000; Potency, µM (top dose mostly 37.9 µM), for the others: top-dose activity change, negative = inhibition, usual class: inhibitors; AID 540256, 2011; Lassa virus pseudotype entry inhibition, cell reporter; control for the full effect not named in the record; active means well fitted inhibition curve with a large enough effect; inconclusive means small, poorly fitted or top-dose-only effect, or effect the other way; inactive means flat fitted curve, though single readings scatter; tested in HEK293 cells; also: % is scaled to controls: 0 for no effect and ±100 for the full control effect; nearly all actives have a fitted effect of over 50% in size; luciferase read-out
MARV entry inh – qHTS for inhibitors of binding or entry into cells for Marburg Virus | hit rate 1.8% among 300,000 | AID 540276, 2011 | Marburg virus pseudotyped entry inhibition, cell reporter; control for the full effect not named in the record; about a third of the inactives were read at about 46 µM | Potency, µM (top dose mostly 37.8 µM), without a hit: at the top dose activity change, negative = inhibition, actives largely listed as inhibitors; active = well fitted inhibition curve with a large enough effect; inconclusive = small, poorly fitted or top-dose-only effect, or effect the other way; inactive = flat fitted curve, though single readings scatter; tested in HEK293 cells; about a fifth of its hits are not listed in these tables; also: % is scaled to controls: 0 for no effect and ±100 for the full control effect; luciferase read-out
Cruzain inh noDet – qHTS Assay for Promiscuous and Specific Inhibitors of Cruzain (without detergent). purified cruzain, Z-FR-AMC fluorescence, no detergent. hit rate 2.3% among 200,000. Cruzipain (Trypanosoma cruzi), P25779. Potency, µM, without a hit: max response, negative = inhibition, actives largely listed as inhibitors. AID 1476, 2009; active = well fitted curve in the direction sought with a large enough effect; inconclusive = small, poorly fitted or top-dose-only effect, or another doubt; inactive = no such curve, though single readings can be large; an effect the other way counts as inactive or inconclusive;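 also: plate controls were enzyme without inhibitor for no effect and buffer without enzyme for full effect; nearly all actives have a fitted effect of over 40% in size; top concentration of the series not given in the record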
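Purified cruzain at 1.5 nM, pre-incubated 15 min with compound at room temperature in 100 mM sodium acetate pH 5.5, 5 mM DTT, 0.00005% Triton X-100. Reaction started with 2 uM Z-FR-AMC; AMC fluorescence increase over 60 s gives rate.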
SARS PLpro yeast – qHTS of Yeast-based Assay for SARS-CoV PLP. S. cerevisiae expressing SARS-CoV PLpro, growth rescue; control for the full effect not named in the record. Potency, µM (highest dose often 32.9 µM), without a hit: top-dose activity, positive = growth rescue. hit rate 0.19% among 330,000. AID 485353, 2010; also: 0% is about no effect; nearly all actives have a fitted effect of over 55% in size; growth read by luminescence after 48 h
Numbers without * were called inactive; ? = inconclusive; / = no result given; & = joins results of further samples; [ ] = dose if it differs, or a comment. Unless noted, calls follow the shape of the dose curve; as a rule, active means well fitted rising curve with a large enough effect; inconclusive means small, poorly fitted or top-dose-only effect; inactive means no such curve, though single readings can be large or run the other way. Potency is read from the fitted curve at half-maximal effect. Rows were taken by chance; overall some 4.7% were active at least once.

cpd	structure	2A StopGo	NS1 inh	Cruzain inh Det	RE007 growth inh
1	COc1ccc(N2CCN(CC(O)COC(c3ccccc3)c3ccccc3)CC2)cc1 (centres undefined)	-2%	-16%	/	2%
2	O=C(NCc1nc2ncc(Br)cc2[nH]1)c1ccccc1	26%	-5%	-0.7%	8%
3	COc1ccc(Cl)cc1S(=O)(=O)NC(C)C(=O)NCCCn1ccnc1 (centres undefined)	5%	/	/	-13%
4	CCOc1cc(C(=O)NCCc2sc(-c3ccc(F)cc3)nc2C)cc(OCC)c1OCC	-23%	/	-5.5%	/
5	CCCN(Cc1cccs1)C(=O)Nc1cc(OC)ccc1OC	-3%	/	-7.2%	/
6	CC(=O)N1c2ccc(S(=O)(=O)N3CCCCCC3)cc2CC1C(=O)NC(C)C (centres undefined)	-10%	/	1.4%	/
7	CN(C)CCC1CCN(c2cc(C#N)c(C#N)cc2[N+](=O)[O-])CC1	-12%	/	/	-11%
8	N#CC(C#N)=C1NC2(CCCC2)Cc2ccccc21	-12%	-3%	-4.5%	-15%
9	CN1C(=O)[C@@H]2[C@H](C1=O)[C@@H]1C(=O)Nc3ccccc3C(=O)N1[C@@H]2c1ccc(F)cc1	4%	-7%	/	4%
10	O=C(CCS(=O)(=O)c1ccc(Br)s1)Nc1cc(C(F)(F)F)cc(C(F)(F)F)c1	?	/	-15%	/
11	CCCn1c(SCC(=O)NC2CCCc3ccccc32)n[nH]c1=O (centres undefined)	-3%	9%	/	1%
12	O=C(O)c1ccc2c(=O)[nH]c(CN3CCOCC3)nc2c1	-13%	2%	1.5%	12%
13	CCOc1ccc(CCNC(=O)COC(=O)CNS(=O)(=O)c2ccc(C)cc2)cc1OCC	-5%	/	/	-2%
14	O=C(COC(=O)Cc1ccccc1[N+](=O)[O-])Nc1nnc(-c2ccccc2)o1	-1%	/	/	-8%
15	Cc1cccc(CNC(=O)c2ccc(-c3nc(CS(=O)(=O)c4ccccc4)c(C)o3)cc2)c1	0%	/	-14%	/

cpd	LASV entry inh	MARV entry inh	Cruzain inh noDet	SARS PLpro yeast
1	0%[46.1 µM]	?	/	-2%
2	3%	?	-11%	-5%
3	?	14%	/	-5%
4	10%[46.1 µM]	/	-3%	/
5	-1%[46.1 µM]	?	8%	/
6	4%[46.1 µM]	/	-6%	/
7	1%	?	/	-3%
8	9%	-1%	0%	10%
9	/	/	/	-1%
10	-1%[46.1 µM]	?	-2%	/
11	-4%	-5%[46.1 µM]	/	-8%
12	0%	-2%	-8%	7%
13	10%	-6%	/	-5%
14	2%	13%[46.1 µM]	/	2%
15	-9%[46.1 µM]	/	-12%	/

An excerpt from above in order of length of the SMILES, ascending:
cpd	structure	2A StopGo	NS1 inh	Cruzain inh Det	RE007 growth inh
11	CCCn1c(SCC(=O)NC2CCCc3ccccc32)n[nH]c1=O (centres undefined)	-3%	9%	/	1%
7	CN(C)CCC1CCN(c2cc(C#N)c(C#N)cc2[N+](=O)[O-])CC1	-12%	/	/	-11%
13	CCOc1ccc(CCNC(=O)COC(=O)CNS(=O)(=O)c2ccc(C)cc2)cc1OCC	-5%	/	/	-2%

cpd	LASV entry inh	MARV entry inh	Cruzain inh noDet	SARS PLpro yeast
11	-4%	-5%[46.1 µM]	/	-8%
7	1%	?	/	-3%
13	10%	-6%	/	-5%

Carrying on.
cpd	structure	2A StopGo	NS1 inh	Cruzain inh Det	RE007 growth inh
16	O=C(Nc1ccc(F)cc1)C(c1ccccc1)N1CCN(C(=O)c2ccco2)CC1 (centres undefined)	0%	-2%	-3.1%	16%
17	CNCCc1ccc(O)c(O)c1	-20%&0%	3%	3.9%	-2%[18.4 µM]
18	Oc1ccc(/C=N/NC(=S)NC2CC3CCC2C3)cc1 (centres undefined)	11%	2%	/	1%
19	Cc1ccc(C(=O)Nc2ccc(N3CCCC3)cc2)c(C)c1	4%	?	/	-13%
20	NS(=O)(=O)c1cccc(NC(=O)COc2ccc([N+](=O)[O-])cc2)c1	-2%	/	/	15%
21	CCOc1ccc(S(=O)(=O)c2c(C(=O)c3ccccc3)cnc3cc4c(cc23)OCCO4)cc1	29%	?	-6.2%	-8%
22	COc1ccc(CNC(=O)CNS(=O)(=O)c2cccs2)cc1	9%	-6%	/	-5%
23	COc1ccc(-c2nc(CSCC(=O)N3CCN(c4cccc(C)c4C)CC3)c(C)o2)cc1OC	25µM*	/	-8.5%	/
24	Cc1ccc(NC(=O)CCn2c(=O)oc3ccccc32)c(C)c1	11%	1%	0.4%	-6%
25	CC(=O)N1c2ccccc2CC1C(=O)N1CCN(c2ccccc2)CC1 (centres undefined)	0%	/	0.5%	/
26	COc1cc(Br)cc(/C=N/N(CCO)C2=NS(=O)(=O)c3ccccc32)c1OC	?	-5%	/	6%
27	COc1ccccc1-c1nnc(SCC(=O)Nc2ccc(S(N)(=O)=O)cc2)n1N	2%	6%	/	-1%
28	CCCCc1cc(=O)oc2cc(C)cc(OCC(=O)N3CCC(C(N)=O)CC3)c12	-10%	-9%	/	3%
29	COC(=O)CC1COc2ccccc2N1S(=O)(=O)c1ccc(Br)cc1 (centres undefined)	-10%	5%	/	12%
30	COc1ccccc1CNC(=O)C(=O)NCC1OCCN1S(=O)(=O)c1ccc(Br)cc1 (centres undefined)	?	0%	/	10%

cpd	LASV entry inh	MARV entry inh	Cruzain inh noDet	SARS PLpro yeast
16	-13%	10%	3%	4%
17	?	?	5%	/
18	11µM*	?	/	1%
19	?	?	/	-3%
20	-4%[46.1 µM]	-28%[46.1 µM]	/	2%
21	-9%	?	32µM*	-2%
22	/	24%[46.1 µM]	/	0%
23	?	/	?	/
24	2%	12%	0%	6%
25	1%[46.1 µM]	/	9%	/
26	-28%[46.1 µM]	4µM*	/	7%
27	/	/	/	1%
28	/	/	/	13%
29	/	/	/	-1%
30	?	-19%	/	-3%

(listing goes on)
cpd	structure	2A StopGo	NS1 inh	Cruzain inh Det	RE007 growth inh
31	O=C(Cc1ccc([N+](=O)[O-])cc1)N1N=C(C2CC2)CC1(O)C(F)(F)F (centres undefined)	-12%	/	/	8%
32	Clc1ccc(-c2ncc3ccccn23)cc1	30%	5%	/	-8%
33	Cc1ccc(C(=O)NC2CCN(C(=O)NC3CCCCC3)CC2)cc1	-13%	7%	-1.2%	5%
34	Cc1ccc(S(=O)(=O)N2CCCC2)cc1C(=O)NCC(C)(C)N1CCOCC1	-13%	/	/	2%
35	O=C(CSc1c[nH]c2ccccc12)NC1CCCC1	-4%	-9%	/	-19%
36	CCc1nc(Nc2ccccc2)c2nnn(Cc3ccccc3)c2n1	?	-11%	/	15%
37	CC(C)c1ccc(/C=C(\NC(=O)c2ccccc2)C(=O)NCCCn2ccnc2)cc1	58%[activator]	10%	/	-6%
38	O=C(Nc1cccnc1)c1ccc(S(=O)(=O)N2CCCCCC2)cc1	-1%	-12%	3.1%	23%
39	O=C(N/N=C/c1cccc(OCc2ccccc2)c1)c1cccs1	-1%	-47%	-11%	-2%[3.69 µM]
40	CCOC(=O)Cc1csc(SCC(=O)NC2CCCCC2)n1	-26%	-4%	-0.5%	-6%
41	CC1(C)Cc2nc3sc4c(SCC(=O)O)ncnc4c3cc2CO1	?	-6%	/	-5%
42	O=C(Nc1ccc2c(c1)OCCO2)c1cc(F)c(F)cc1Cl	60%[activator]	15%	/	-14%
43	COc1ccc(N(CC(=O)Nc2ccc(C)c(C)c2)C2=NC3CS(=O)(=O)CC3S2)cc1 (centres undefined)	?	8%	/	0%
44	CC(=O)c1cccc(NC(=O)c2noc3c2CSc2ccccc2-3)c1	42%[activator]	/	-1.4%	/
45	Cc1c(C(=O)NNC(=O)Nc2ccc([N+](=O)[O-])cc2)oc2ccccc12	3%	4%	/	1%

cpd	LASV entry inh	MARV entry inh	Cruzain inh noDet	SARS PLpro yeast
31	1%	-5%[46.1 µM]	/	-5%
32	6%[46.1 µM]	?	/	0%
33	2%	?	-7%	1%
34	17%	52%	/	0%
35	/	/	/	-8%
36	/	/	/	-3%
37	/	/	/	2%
38	17%	3%	-7%	1%
39	5%	10%	-27%	-15%
40	-1%	-17%	-13%	-13%
41	/	/	/	0%
42	/	/	/	-2%
43	/	/	/	1%
44	30%[46.1 µM]	1%[46.1 µM]	14%	/
45	7%[46.1 µM]	-25%[46.1 µM]	/	1%

Other entries follow:
cpd	structure	2A StopGo	NS1 inh	Cruzain inh Det	RE007 growth inh
46	CCCCOC(=O)C1=C(N)OC2=C(C(=O)CCC2)[C@]12C(=O)N(C)c1ccccc12	?	-4%	2.2%	-6%
47	CCN(CC)S(=O)(=O)c1ccc2c(c1)N(CC(=O)NCCN1CCOCC1)C(=O)CO2	-19%	-6%	/	2%
48	COC(=O)c1c(NC(=O)c2ccccc2)sc(Cc2ccccc2)c1C	4%	12%	-1.3%	11%
49	CC1(OC(=O)c2cccs2)C(=O)C=C2C=C(C3CC3)OC=C2C1=O (centres undefined)	-8%	/	-7.6%&-0.3%	-16%
50	CCOc1cc2[nH]c(=O)n(Cc3ccc(C(=O)NCCCN4CCCC4=O)cc3)c(=O)c2cc1OCC	-13%	/	/	-6%
51	CCOc1ccccc1C(=O)NCc1ccco1	-23%	4%	-3.5%	-22%
52	N#C/C(=C\c1ccccn1)c1ccccn1	10%	-13%	/	?

cpd	LASV entry inh	MARV entry inh	Cruzain inh noDet	SARS PLpro yeast
46	10%	21%	21%	-1%
47	/	/	/	-1%
48	-7%	4%	?	-9%
49	/	/	7%&-1%	/
50	?	-3%	/	1%
51	0%	13%	2%	1%
52	?	?	/	0%

From PubChem BioAssay
